PK Bst: pyruvate kinase (B. stearothermophilus) modulation; partly purified Bacillus stearothermophilus pyruvate kinase, luminescence ATP production; ribose 5-phosphate activator present at AC10; Potency, µM; 1.2% of 51,000 active; in the data active means potency below about 11 µM; inconclusive means mostly about 12 µM to 25 µM; inactive means weaker than that;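 the screen sought inhibitors and activators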;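 also: potency is read from the fitted curve at half-maximal effect; scaled between full activation by ribose 5 phosphate and full inhibition by luteolin; about four in five hits inhibit and the cells do not say which; series up to 57 µM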
TsaE inh: displaces an ADP probe from E. coli YjeE (TsaE); P0AF67; purified YjeE, fluorescence polarisation of a bound ADP probe; Potency, µM; 0.05% of 71,000 active; active = well fitted falling curve; inconclusive = weaker or top-dose-only fall, or a rising curve; inactive = flat or poorly fitted curve;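 also: top concentration of the series not given in the record; excess ADP was the control for the full effect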
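Purified YjeE (10 uM) with BODIPY Texas Red-labeled ADP probe (2 uM); compounds pin-transferred, 15 min at room temperature. Binding inhibition read as decreased fluorescence polarization; ADP titration as control.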
The depositor's hits bear a star. Not all compounds are listed, so the mix of outcomes need not match the whole.

For COC(=O)c1[nH]c2ccccc2c1NC(=O)CN1CCC(C(N)=O)(N2CCCCC2)CC1 the results were PK Bst >57 and TsaE inh inactive.
For C=C/C(=C\C)C[C@@H](CC(=O)N[C@@H](CCC(=O)O)CC(=O)O)NC(=O)[C@@H]1CNCC[C@H]1NC(=O)C[C@@H](NC(=O)C[C@H](Cc1ccccc1)NC(=O)[C@@H]1CCCC[C@H]1N)C(C)C the results were TsaE inh inactive.
`COC(=O)C(NS(C)(=O)=O)(c1c(C)[nH]c2ccccc12)C(F)(F)F` (stereo not drawn) gave PK Bst >57 and TsaE inh inactive.
`COc1cccc(C2CC(c3ccccc3OC)n3nc(N)nc3N2)c1` (stereo not drawn) gave TsaE inh inactive.
For O=C(NCc1ccccc1)c1cc(-n2cnnc2)ccc1Cl the results were PK Bst >57 and TsaE inh inactive.
`CSc1nc2[nH]c3c(c2c2nncn12)CC(C)(C)OC3` gave PK Bst inactive.
Screening CCn1c(Cc2c(C)[nH]c3ccccc23)nnc1SCC(N)=O returned PK Bst >57 and TsaE inh inactive.
`C/C(Cl)=C/Cn1c(=O)c2c(nc(Br)n2Cc2ccccc2)n(C)c1=O` gave PK Bst >57 and TsaE inh inactive.
CC(=O)Cc1nsc(NC(=O)c2ccc(-c3cc(C(F)(F)F)ccc3Cl)o2)n1 was read as PK Bst >57 and TsaE inh inactive.
CCS(=O)(=O)CCSc1nc(C)cc(C)n1 was read as PK Bst >57 and TsaE inh inactive.
`CCCCCCCCN[C@@H](C)[C@H](O)c1ccc(SC(C)C)cc1` gave TsaE inh inactive.
Screening COc1ccc(C(=O)CSc2nnc(-c3cc4ccccc4cc3O)n2Cc2ccco2)cc1 returned PK Bst >57 and TsaE inh inactive.
`N#Cc1nc(Cc2ccccc2)oc1N1CCC(Cc2ccccc2)CC1` gave PK Bst >57 and TsaE inh inactive.
CCOC(=O)C1=C(CC)Nc2ccccc2N=C1NC(=O)Nc1ccccc1OC was read as PK Bst >57 and TsaE inh inactive.
For COc1ccccc1-c1nnc2n1N=C(C)CS2 the results were PK Bst >57 and TsaE inh inactive.
`COc1ccc2[nH]c(C)c(CN3CCCCC3)c(=O)c2c1` gave PK Bst >57 and TsaE inh inactive.
`O=C(Oc1ccc(Br)cc1)C1CC(=O)N(c2ccc(F)cc2)C1` (stereo not drawn) gave PK Bst >57 and TsaE inh inactive.
For CCOc1ccc(CC(=O)Nc2c(C(N)=O)oc3ccc(Br)cc23)cc1OCC the results were TsaE inh inactive.
`Cn1c(SCC(=O)NCc2ccc3c(c2)OCO3)nnc1-c1cc2ccccc2cc1O` gave PK Bst >57 and TsaE inh inactive.
For COc1ccccc1NC(=O)N1CCCC(c2nc3c(nnn3Cc3ccc(C)cc3)c(=O)[nH]2)C1 (stereo not drawn) the results were PK Bst >57 and TsaE inh inactive.
`Cc1cccc(NC(=O)CN(C)S(=O)(=O)c2cnc[nH]2)c1` gave PK Bst >57 and TsaE inh inactive.
For COc1ccc(CCNC(=O)CC2Oc3ccc(Cl)cc3NC2=O)cc1OC (stereo not drawn) the results were TsaE inh inactive.
For CCN(C(=O)c1cn(C)c(=O)c2cc(OC)c(OC)cc12)c1cc(OC)ccc1OC the results were PK Bst >57 and TsaE inh inactive.
`CC(=O)C1=C(C)NC(C)=C(C(C)=O)C1c1cccs1` gave TsaE inh inactive.
For CN1CCN(S(=O)(=O)c2ccc(NC(=O)Nc3cccc(Cl)c3)cc2)CC1 the results were PK Bst >57 and TsaE inh inactive.
For O=C(NCCc1csc(-c2cccnc2)n1)c1ccc(Br)o1 the results were TsaE inh inactive.
Cc1ccc(-c2ccc(C(=O)O)[nH]2)cc1 was read as PK Bst >57 and TsaE inh inactive.
COC(=O)[C@@H](NC(=O)NCc1ccco1)C(C)C was read as PK Bst >57 and TsaE inh inactive.
Screening COCCN(CCOC)c1ncnc2c1cnn2-c1ccc(Cl)cc1 returned TsaE inh inactive.
`Cc1cnc(CNc2cc(-c3c(C)noc3C)ncn2)cn1` gave TsaE inh inactive.
CC(NC(=O)CSc1ncccn1)c1ccccc1 (stereo not drawn) was read as PK Bst >57 and TsaE inh inactive.
Screening O=S(=O)(NCC1CCCO1)c1ccc2ccccc2c1 (stereo not drawn) returned TsaE inh inactive.
C=CCn1c(=S)[nH]c2ccccc2c1=O was read as PK Bst >25.6.
CCC(C(=O)NCc1ccc(F)cc1)N(Cc1ccco1)C(=O)c1snc(C(N)=O)c1N (stereo not drawn) was read as PK Bst >57 and TsaE inh inactive.
Screening Cc1ccc(C(=O)N2c3ccc(F)cc3CCC2C)o1 (stereo not drawn) returned PK Bst >57 and TsaE inh inactive.
For CC1CCN(C(=S)c2ccccc2O)CC1 the results were PK Bst >57 and TsaE inh inactive.
For CCOc1ccccc1C(=O)N(CN1CCCC1=O)c1cccc(Cl)c1 the results were PK Bst >57 and TsaE inh inactive.
For CN1CCN(S(=O)C23CC4CC(CC(C4)C2)C3)CC1 (stereo not drawn) the results were PK Bst >57 and TsaE inh inactive.
Screening COCC(C)NC(=O)C1CC(=O)N(c2ccc(C)cc2)C1 (stereo not drawn) returned PK Bst >57 and TsaE inh inactive.
COc1cccc(NC(=O)CN2C(=O)COc3ccc(Cl)cc32)c1 was read as TsaE inh inactive.

At a glance, part of the list above:
`Cc1cccc(NC(=O)CN(C)S(=O)(=O)c2cnc[nH]2)c1` gave PK Bst >57 and TsaE inh inactive.
For COc1ccc(CCNC(=O)CC2Oc3ccc(Cl)cc3NC2=O)cc1OC (stereo not drawn) the results were TsaE inh inactive.

The listing continues:
`CCCn1nc(CC(=O)O)c2ccccc2c1=O` gave PK Bst >57 and TsaE inh inactive.
CCOC(=O)C1=C(CSc2nc3c(cc2C#N)CCC3)OC(N)=C(C#N)C1c1ccccc1 (stereo not drawn) was read as PK Bst >25.6.
Screening Nc1cc(S(N)(=O)=O)ccc1SSc1ccc(S(N)(=O)=O)cc1N returned TsaE inh inactive.
`C=CCn1c(SCC(=O)c2ccc(OC)cc2)nnc1C(C)NC(=O)c1cccs1` (stereo not drawn) gave PK Bst >57 and TsaE inh inactive.
`COc1cc(OC)c(NC2=NCCCCC2)cc1Cl` gave PK Bst >57 and TsaE inh inactive.
`Cc1nn(-c2ccccc2)c2sc(C(=O)NC3CCCCC3)cc12` gave PK Bst >57 and TsaE inh inactive.
`Cc1ccc(/C(O)=C2/C(=O)C(=O)N(CCCn3ccnc3)C2c2cccnc2)cc1` (stereo not drawn) gave TsaE inh inactive.
For Cc1ccc(C)c(C(=O)CSc2n[nH]c(-c3ccncc3)n2)c1 the results were TsaE inh inactive.
Cc1ccc(S(=O)(=O)NCCC(=O)NCCN2CCCCCC2)cc1 was read as PK Bst >57 and TsaE inh inactive.
For CC(NS(=O)(=O)c1ccccc1)C(N)=O (stereo not drawn) the results were PK Bst >57 and TsaE inh inactive.
For COc1cccc(-c2nc(NCCc3c[nH]c4ccc(OC)cc34)c3ccccc3n2)c1 the results were TsaE inh inactive.
Screening NC(=O)C1(c2ccccc2)CCOCC1 returned PK Bst >57 and TsaE inh inactive.
For O=C(CN1C(=O)c2ccccc2S1(=O)=O)NCc1ccccn1 the results were PK Bst >57 and TsaE inh inactive.
`C=CCN(C(=O)CN1CCOCC1)c1nc(C)c(-c2ccccc2)s1` gave PK Bst >57 and TsaE inh inactive.
Screening NCCC[C@@H](CC(=O)N[C@@H]1CCNC[C@H]1C(=O)N[C@H](CC(=O)N[C@@H](CCC(=O)O)CC(=O)O)Cc1c[nH]c2ccccc12)NC(=O)C[C@H](Cc1ccccc1)NC(=O)[C@@H]1CNCC[C@H]1N returned TsaE inh inactive.
Screening Cc1cc(OCC(=O)Nn2cnnc2)c(C)cc1Br returned PK Bst >57 and TsaE inh inactive.
C(=N\n1cnnc1)/c1cccc(OCCOc2ccccc2)c1 was read as TsaE inh inactive.
`CC1(C)Cc2c(C#N)c(NCC3CCCO3)nc(-c3ccco3)c2CO1` (stereo not drawn) gave PK Bst >25.6.
Screening Cc1cc(C)cc(NC(=O)CSc2nnc(-c3ccccc3)n2N)c1 returned PK Bst >57 and TsaE inh inactive.
`COc1ccc(S(=O)(=O)N2CCN(c3ccccn3)CC2)cc1OC` gave PK Bst >57 and TsaE inh inactive.
COc1ccc(-n2c(SCC(=O)Nc3nccs3)nc3c(c2=O)SC(C)C3)cc1 (stereo not drawn) was read as TsaE inh inactive.
For COCCCNC(=O)c1ccc2c(c1)OCO2 the results were PK Bst >57 and TsaE inh inactive.
CSc1nnc(-c2cccs2)n1-c1ccccc1 was read as PK Bst >57 and TsaE inh inactive.
Screening CCCCCc1c(O)nc(SCC(=O)NCC2CCCO2)[nH]c1=O (stereo not drawn) returned PK Bst >11.4 and TsaE inh inactive.
Brc1cccc(-c2cnc3n2CCCCC3)c1 was read as PK Bst >25.6.
Screening COc1cc(C)c(S(=O)(=O)n2ccc(C)n2)cc1C returned PK Bst >57 and TsaE inh inactive.
`COc1ccc(S(=O)(=O)NCc2ccc(C(=O)O)cc2)cc1` gave PK Bst >57 and TsaE inh inactive.
O=C(NC1CCCCC1)c1ccc(S(=O)(=O)NCc2cccnc2)cc1 was read as PK Bst >57 and TsaE inh inactive.
Screening COc1ccc(OC)c(NC(=O)C23CCC(C)(C(=O)O2)C3(C)C)c1 (stereo not drawn) returned PK Bst >57 and TsaE inh inactive.
`COc1ccc(NC(=O)CNS(=O)(=O)c2ccc3nc(C)sc3c2)c(OC)c1` gave PK Bst >57 and TsaE inh inactive.
Screening COc1ccc(CC(NC(C)=O)C(=O)N2CCN(C(=O)N(C(C)C)C(C)C)CC2)cc1 (stereo not drawn) returned PK Bst >57 and TsaE inh inactive.
For O=C(CCCN1CCC(O)(c2ccc(Br)cc2)CC1)c1ccc(F)cc1 the results were TsaE inh inactive.
For CCOc1ccc(C)cc1S(=O)(=O)n1ccc(C)n1 the results were PK Bst >57 and TsaE inh inactive.
For CCN(CC)C(=O)COn1c(SCC(=O)N(CC)CC)nc2ccccc2c1=O the results were PK Bst >25.6.
CN1C(=O)CC(N2CCN(CC(=O)N3CCCC3)CC2)C1=O (stereo not drawn) was read as TsaE inh inactive.
O=C(Nc1nnc(-c2ccccc2Cl)o1)c1ccc(S(=O)(=O)N2CCCCCC2)cc1 was read as PK Bst >57 and TsaE inh inactive.
Screening CCOC(=O)C1CCN(S(=O)(=O)c2ccc3c4c(cccc24)C(=O)N3)CC1 returned TsaE inh inactive.
Screening CCOC(=O)C1CCN(Cc2ccc(O)c3ncccc23)CC1 returned PK Bst >57 and TsaE inh inactive.
For COc1ccc(CCNC(=O)c2cc(-c3ccc4c(c3)OCO4)on2)cc1OC the results were PK Bst >57 and TsaE inh inactive.
`COC(=O)C(C)Sc1nc2c(cnn2-c2ccc(C)cc2)c(=O)[nH]1` (stereo not drawn) gave PK Bst >57 and TsaE inh inactive.
`Cc1ccccc1CN1CCNC1=O` gave PK Bst >57 and TsaE inh inactive.
Screening O=C(O)c1ccccc1C(=O)Nc1ccccn1 returned PK Bst >11.4 and TsaE inh inactive.
For Cc1cccc(C)c1NC(=O)CSc1nnc(-c2ccco2)n1N the results were PK Bst >57 and TsaE inh inactive.
Screening Cc1ccsc1C1C2=C(CC(C)(C)CC2=O)Nc2ncnn21 (stereo not drawn) returned TsaE inh inactive.
Cc1cc(C(=O)N(C2CCCCC2)C2CCCCC2)no1 was read as PK Bst >57 and TsaE inh inactive.
For CCc1nc(N(CC)CC)c2oc3ccccc3c2n1 the results were PK Bst >57 and TsaE inh inactive.
`O=C(CSc1ccc2nnc(-c3ccc(F)cc3)n2n1)NCC1CCCO1` (stereo not drawn) gave PK Bst >57 and TsaE inh inactive.
CC(C)OC(=O)c1cccc(C(=O)O)n1 was read as PK Bst >57 and TsaE inh inactive.
Screening CCCc1nnc(NC(=O)CCN2C(=O)c3ccccc3C2=O)s1 returned PK Bst >57 and TsaE inh inactive.
For Cc1cc(NC(=O)c2ccc3c(c2)OCO3)no1 the results were TsaE inh inactive.
CC12CC(NC(=O)N1c1cccc(C(=O)N3CCN(c4ccccc4F)CC3)c1)c1ccccc1O2 (stereo not drawn) was read as PK Bst >57 and TsaE inh inactive.
Screening CCCC(=O)Nc1ccc2oc(-c3ccncc3)nc2c1 returned PK Bst inactive and TsaE inh inactive.
`CC(=O)CC(C)=NCCN=C(C)CC(C)=O` gave PK Bst >57 and TsaE inh inactive.
`Cc1ccc(C2(C)NC(=O)N(CC(=O)NC(=O)NC3CCCC3)C2=O)cc1` (stereo not drawn) gave PK Bst >57 and TsaE inh inactive.
Screening Cc1cc(OCC(O)CN(CCO)CCO)ccc1Cl (stereo not drawn) returned PK Bst >57 and TsaE inh inactive.
COc1ccc(OCC(=O)N2CCOCC2)cc1 was read as TsaE inh inactive.
`COc1ccc(S(=O)(=O)Cc2ccc(C(=O)N3CCN(c4ccc(Cl)cc4)CC3)o2)cc1` gave TsaE inh inactive.
`Cc1ccc(C)c(C(=O)CN2C(=O)CCC2=O)c1` gave PK Bst >57 and TsaE inh inactive.

In the list so far, 6 contain two or more sulfur atoms.
CCS(=O)(=O)CCSc1nc(C)cc(C)n1 was read as PK Bst >57 and TsaE inh inactive.
Screening Nc1cc(S(N)(=O)=O)ccc1SSc1ccc(S(N)(=O)=O)cc1N returned TsaE inh inactive.
`C=CCn1c(SCC(=O)c2ccc(OC)cc2)nnc1C(C)NC(=O)c1cccs1` (stereo not drawn) gave PK Bst >57 and TsaE inh inactive.
COc1ccc(-n2c(SCC(=O)Nc3nccs3)nc3c(c2=O)SC(C)C3)cc1 (stereo not drawn) was read as TsaE inh inactive.
CSc1nnc(-c2cccs2)n1-c1ccccc1 was read as PK Bst >57 and TsaE inh inactive.
`COc1ccc(NC(=O)CNS(=O)(=O)c2ccc3nc(C)sc3c2)c(OC)c1` gave PK Bst >57 and TsaE inh inactive.
